Screening data from PubChem BioAssay.
Lassa entry inh = blocks Lassa virus binding to or entry into cells | Lassa virus pseudotype entry inhibition, cell reporter; control for the full effect not named in the record | AID 540256 | hit rate 1.2% among 300,000 | Potency, µM (top dose mostly 37.9 µM), for inactives: at the top dose activity change, negative = inhibition, most hits filed as inhibitors; active means well fitted inhibition curve with a large enough effect; inconclusive means small, poorly fitted or top-dose-only effect, or effect the other way; inactive means flat fitted curve, though single readings scatter; tested in HEK293 cells; further: on the % scale 0 is the no-effect control and ±100 the full control effect; nearly all actives have a fitted effect of over 50% in size; luciferase read-out
Cruzain inh noDet = cruzain (T. cruzi) inhibition without detergent; Potency, µM, inactives show max response, negative = inhibition, actives largely listed as inhibitors; purified cruzain, Z-FR-AMC fluorescence, no detergent; AID 1476; hit rate 2.3% among 200,000; active means well fitted curve in the direction sought with a large enough effect; inconclusive means small, poorly fitted or top-dose-only effect, or another doubt; inactive means no such curve, though single readings can be large; an effect the other way counts as inactive or inconclusive;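 further: plate controls were enzyme without inhibitor for no effect and buffer without enzyme for full effect; nearly all actives have a fitted effect of over 40% in size; top concentration of the series not given in the record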
Target sequence (P25779 123-467 limits assumed): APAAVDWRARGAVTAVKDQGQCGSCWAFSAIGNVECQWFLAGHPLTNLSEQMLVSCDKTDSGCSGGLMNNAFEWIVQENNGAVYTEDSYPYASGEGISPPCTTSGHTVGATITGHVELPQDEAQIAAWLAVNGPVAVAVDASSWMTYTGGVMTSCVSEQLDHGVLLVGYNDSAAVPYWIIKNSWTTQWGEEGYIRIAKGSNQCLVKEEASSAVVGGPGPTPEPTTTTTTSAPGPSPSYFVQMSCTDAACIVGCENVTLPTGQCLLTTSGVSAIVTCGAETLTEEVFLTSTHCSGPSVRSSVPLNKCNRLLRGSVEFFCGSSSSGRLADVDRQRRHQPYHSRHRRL
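Detergent-free condition (0.00005% Triton X-100) in acetate buffer pH 5.5 with DTT. 1.5 nM enzyme and compound were pre-mixed 15 min, then 2 uM Z-FR-AMC substrate added; reaction progress from fluorescence change between first and third reads (60 s).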
StopGo reporter = FMDV 2A StopGo reporter, luciferase signal; AID 1159524; Potency, µM (top dose mostly 57.9 µM), without a hit: top-dose signal change, negative = less light; human cells with a luciferase reporter of 2A StopGo recoding; control for the full effect not named in the record; hit rate 1.2% among 410,000; active = well fitted falling curve with a large enough effect; inconclusive = small, poorly fitted or top-dose-only effect; inactive = no such curve, though single readings can be large or run the other way; tested in HEK293T cells; further: on the % scale 0 is the no-effect control and ±100 the full control effect; nearly all actives have a fitted effect of over 45% in size; luciferase light after 4 h
Cruzain Triton = inhibitors of Trypanosoma cruzi cruzain with detergent. purified cruzain, Z-FR-AMC fluorescence, 0.01% Triton. hit rate 0.43% among 200,000. Potency, µM, for inactives: max response, negative = inhibition, most hits filed as inhibitors. P25779; active means well fitted curve in the direction sought with a large enough effect; inconclusive means small, poorly fitted or top-dose-only effect, or another doubt; inactive means no such curve, though single readings can be large; an effect the other way counts as inactive or inconclusive;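 further: plate controls were neutral wells for no effect and buffer without enzyme for full effect; nearly all actives have a fitted effect of over 40% in size; top concentration of the series not given in the record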
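Sodium acetate buffer (100 mM, pH 5.5) containing 5 mM DTT and 0.01% Triton X-100 hosted 1.5 nM cruzain and test compound for 15 min at room temperature. Cleavage of 2 uM Z-FR-AMC was then tracked by fluorescence.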
NS1 inh = influenza NS1 inhibition; S. cerevisiae slowed by influenza A NS1, growth recovery by OD600; Potency, µM (titrated, usually from 46.1 µM), for inactives: at the top dose activity, positive = more growth; hit rate 0.4% among 270,000; AID 2326; further: actives are rising curves; nearly all actives have a fitted effect of over 50% in size
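S. cerevisiae expressing influenza A NS1, grown in glucose, washed, then diluted 1:100 into pH 6.0 -URA galactose medium with 23 nl compound. Growth recovery read as OD600; NS1-free strain serves as control.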
RE007 growth inh = less growth of the S. pombe RE007 Vpr strain. S. pombe RE007 Vpr strain, BacTiter-Glo ATP luminescence, 24 h; control for the full effect not named in the record. Potency, µM (titrated, usually from 92.2 µM), for the others: top-dose activity change, negative = less growth. hit rate 0.21% among 360,000; active = well fitted falling curve with a large enough effect; inconclusive = small, poorly fitted or top-dose-only effect; inactive = no such curve, though single readings can be large or run the other way;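 further: on the % scale 0 is the no-effect control and ±100 the full control effect; nearly all actives have a fitted effect of over 50% in size; the assay follows cell death caused by Vpr and the record does not say whether a fall means rescue or toxicity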
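Fission yeast strain RE007, carrying one chromosomally integrated HIV-1 vpr copy, was seeded at OD 0.01 in PMG+AL medium with 23 nL pinned compound. After 24 h at 30 °C and 99% humidity, viability was read by BacTiter-Glo luminescence.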
MARV entry inh = blocks Marburg virus binding to or entry into cells | Marburg virus pseudotyped entry inhibition, cell reporter; control for the full effect not named in the record; about a third of the inactives were read at about 46 µM | Potency, µM (titrated, usually from 37.8 µM), for the others: top-dose activity change, negative = inhibition, usual class: inhibitors | hit rate 1.8% among 300,000 | AID 540276; active = well fitted inhibition curve with a large enough effect; inconclusive = small, poorly fitted or top-dose-only effect, or effect the other way; inactive = flat fitted curve, though single readings scatter; tested in HEK293 cells; about a fifth of its hits are not listed in these tables; further: on the % scale 0 is the no-effect control and ±100 the full control effect; luciferase read-out
SARS PLP yeast = blocks SARS-CoV papain-like protease in a yeast assay. Potency, µM (series often up to 32.9 µM), for inactives: top-dose activity, positive = growth rescue. AID 485353. S. cerevisiae expressing SARS-CoV PLpro, growth rescue; control for the full effect not named in the record. hit rate 0.19% among 330,000; further: 0% is about no effect; nearly all actives have a fitted effect of over 55% in size; growth read by luminescence after 48 h
An asterisk follows results filed as active; ? = inconclusive; nt = no result given; & = joins results of further samples; [ ] = dose if it differs, or a comment. Unless noted, the call rests on the fitted dose curve; in most records, active means well fitted rising curve with a large enough effect; inconclusive means small, poorly fitted or top-dose-only effect; inactive means no such curve, though single readings can be large or run the other way. Potency means the concentration at half of the fitted maximal effect.

SMILES	Lassa entry inh	Cruzain inh noDet	StopGo reporter	Cruzain Triton	NS1 inh	RE007 growth inh	MARV entry inh	SARS PLP yeast
CCC(C)C(=O)Nc1ccccc1N1CCN(c2ccc(F)cc2)CC1 (stereo not drawn)	?	nt	?	nt	-40%	3%	13µM*	-2%
O=C(NCc1ccco1)c1cccc(F)c1	-1%	-5%	19%	1.5%	1%	8%	14%	nt
O=C1CC(N2CCN(Cc3ccccc3)CC2)C(=O)N1c1ccc2c(c1)OCCO2 (stereo not drawn)	21%	4%	-16%	4.0%	-4%	6%	10%[46.1 µM]	-3%
COc1ccccc1-n1c(-c2ccc(NS(C)(=O)=O)cc2)n[nH]c1=S	6%	12%	nt	5.2%	4%	0%	11%	4%
Nc1cc(N2CCCCC2)c([N+](=O)[O-])cc1Cl	-1%	-16%	-11%	-6.1%	-3%	8%	10%	-2%
CC1Cc2ccccc2N1S(=O)(=O)c1cccc(C(=O)NCCCO)c1 (stereo not drawn)	-18%	6%	-15%	0.5%	-5%	10%	-6%	-5%
COc1ccc(C(=O)NNS(=O)(=O)c2ccccc2)cc1	1%	-3%	36%[activator]	-0.9%	15%	-19%	?	8%
CN1C(=O)c2ccccc2Sc2ccc(NC(=O)N3CCN(c4cccc(Cl)c4)CC3)cc21	?	-4%	-13%	-5.2%	nt	nt	11µM*	nt
CCn1c(CNc2ccc(F)cc2)nnc1SCC(=O)Nc1ccc(OC)cc1	-1%	-2%	-11%	-1.9%	-4%	1%	-2%	-12%
Cc1ccc(S(=O)(=O)Oc2ccc(/C=C(/NC(=O)c3ccccc3)C(=O)NCCC(=O)O)cc2)cc1	-17%	nt	-4%	nt	9%	-1%	2%[46.1 µM]	1%
O=C(OCc1nnc(-c2ccccc2)o1)c1ccco1	15%	2%	23%	-0.6%	-7%	4%	7%[46.1 µM]	8%
COc1cc(/C=N/NC(=S)Nc2cccc(C(=O)O)c2)cc(OC)c1OC	-1%	-5%	-12%	-12%	3%	8%	21%	17%
Cn1c(C(C#N)C(=O)c2sc3ccccc3c2Cl)nc2ccccc21 (stereo not drawn)	-22%	-72%	-15%	1.4%	2%	-11%	-2%	0%
Cc1nc(CC(=O)NNS(=O)(=O)c2ccc3ccccc3c2)cs1	-4%	-9%	5%	-4.6%	9%	-3%	0%	-8%
COCCNC(=O)COc1coc(CN2CCN(Cc3ccccc3)CC2)cc1=O	19%[46.1 µM]	nt	-15%	nt	-4%	-13%	14%[46.1 µM]	?
CCC(C)NC(=O)Cn1c(=O)n(-c2cc(OC)cc(OC)c2)c(=O)c2ccccc21 (stereo not drawn)	-4%[46.1 µM]	-3%	0%	0.5%	nt	nt	28%[46.1 µM]	nt
O=C(Cn1ncc2c3ccccc3n(Cc3ccccc3F)c2c1=O)NCCc1ccc(Cl)cc1	18%[46.1 µM]	-24%	15%	-3.4%	nt	nt	-2%[46.1 µM]	nt
Cc1c(O)cc2c(c1O)C(=O)CC(c1ccccc1)O2 (stereo not drawn)	nt	nt	-23%	nt	-62%	-16%	nt	-5%
CCOC(=O)c1ccc(NS(=O)(=O)c2cn(C)cn2)cc1	nt	nt	-5%	nt	-9%	4%	nt	-1%
C[C@]12CC[C@@H]3c4ccc(O)cc4CC[C@H]3[C@@H]1C[C@@H](O)[C@@H]2O[C@@H]1O[C@H](C(=O)O)[C@@H](O)[C@H](O)[C@H]1O	-5%	2%	0%	-1.4%	-1%	5%	-1%	?
O=C(CCc1ccccc1)Nc1cc(S(=O)(=O)N2CCOCC2)ccc1N1CCCC1	-16%	nt	-10%	nt	nt	17%	0%	2%
C[C@]12C(=O)N(c3ccc(F)cc3)C(=O)N1[C@@H]1c3ccccc3OC[C@@H]1[C@H]2c1ccccc1	nt	nt	-21%	nt	6%	2%	nt	-3%
CNC(=S)Nc1cc(Cl)ccc1Oc1ccccc1	-5%	-3%	28%	-6.7%	-6%	-21%	-16%	3%
CC(=O)c1cccc(NC(=O)Nc2c(C)n(C)n(-c3ccccc3)c2=O)c1	-5%[46.1 µM]	-4%	-29%	1.8%	nt	nt	3%[46.1 µM]	nt
COc1cc(CC(=O)NCc2cccs2)cc(OC)c1OC	11%	-4%	-5%	1.8%	0%	10%	-1%	-2%
COc1ccc(C2=NN(C(=O)CCC(=O)O)C(c3cccs3)C2)cc1 (stereo not drawn)	-10%	nt	0%	nt	-1%	-4%	-9%[46.1 µM]	0%
Cc1nc(Cl)c(C(=O)Nc2cccc(F)c2)c(C)c1Cl	2%	nt	10%	nt	nt	10%	-8%[46.1 µM]	-10%
COc1ccc2ccccc2c1C1CC(=O)N2CN(C3CCCCC3)CSC2=C1C#N (stereo not drawn)	nt	?	?	-15%	?	0%	nt	0%
CC(C)CN1CCN(Cc2c(F)cccc2Cl)CC1CCO (stereo not drawn)	-4%	nt	-14%	nt	9%	-8%	1%[46.1 µM]	-2%
CC1=NC(=O)C(N=Nc2ccccc2)N1c1ccccc1 (stereo not drawn)	?	-25%	35%[activator]	-7.0%	-9%	-4%	-20%	2%
Cc1cc(N2C(=O)C(O)=C(C(=O)c3ccc(C)o3)C2c2ccc([N+](=O)[O-])cc2)no1 (stereo not drawn)	nt	nt	0%	nt	15%	-1%	nt	4%
CCOc1ccccc1NC(=O)COC(=O)Cc1ccc(-c2ccccc2)cc1	nt	4%	3%	0.1%	1%	0%	nt	-2%
O=C(NOC(=O)c1ccccc1)c1ccccc1	-19%[46.1 µM]	nt	-5%	nt	-8%	?	-15%[46.1 µM]	0%
CC(C)(C)c1ccccc1NC(=O)CN1C(=O)NC2(CCCCCC2)C1=O	-1%	nt	-25%	nt	nt	7%	3%	6%
Cc1c(NS(=O)(=O)c2ccc([N+](=O)[O-])cc2)c(=O)n(-c2ccccc2)n1C	5%	nt	-3%	nt	10%	-6%	3%	-3%
CC(NS(=O)(=O)c1ccccc1)C1COc2ccccc2O1 (stereo not drawn)	-11%	-9%	-17%	2.9%	-11%	-5%	-4%	1%
O=c1[nH]c(=O)n(Cc2ccco2)c(O)c1C=NC1CC1	12%	-11%	9%	-0.6%	3%	21%	-26%	1%
Cc1ccc(C(C(=O)NC2CCCC2)N(Cc2ccco2)C(=O)CCC(=O)Nc2ccccn2)cc1 (stereo not drawn)	-15%	16%	-25%	-0.6%	-17%	6%	?	-1%
O=C(CN1CCCC1)Nc1nc(-c2ccc3c(c2)CCN3C(=O)c2ccccc2F)cs1	?	nt	3%	nt	3%	?	?	-1%
CC(C)c1onc(C(=O)N2CCN(C(c3ccccc3)c3ccccc3)CC2)c1[N+](=O)[O-]	8%	-25%	-19%	-1.5%	?	-1%	-2%	-17%
O=C(NC(=S)Nc1ccc(N2CCOCC2)c(Cl)c1)c1sc2ccccc2c1Cl	nt	?	-12%	-4.6%	10%	-1%	nt	10%
O=C(NCC1CCCCC1)c1cc(Br)ccc1Cl	-11%	nt	12%	nt	11%	13%	-3%[46.1 µM]	-23%
CC1=NN(c2nc(-c3ccc(C#N)cc3)cs2)C(=O)C1	-28%[46.1 µM]	nt	13%	nt	19%	-16%	13%[46.1 µM]	0%
CC1CCc2c(sc(NC(=O)c3ccc(Cl)cc3Cl)c2C#N)C1 (stereo not drawn)	0%[46.1 µM]	4%	3%	-1.3%	nt	nt	nt	nt
Cc1ccc(C(=O)Nc2c(-c3cccs3)c(=O)c3ccccc3n2C)cc1	?	-12%	1%	-8.0%	9%	-2%	9%	-5%
O=C(CSc1nnc2ccccn12)NCCc1ccc(Cl)cc1	nt	nt	0%	nt	0%	-5%	2%[46.1 µM]	-3%
COc1ccccc1N1CCN(C(=O)c2cc3cc(F)ccc3[nH]2)CC1	?	nt	-9%	nt	-7%	-12%	?	0%
COc1ccc(-c2cc3c(=O)n(CC(=O)N4CCN(C)CC4)ncn3n2)cc1	nt	nt	-1%	nt	12%	-12%	nt	-2%
C/C(N)=C(/C#N)C(=O)COC(=O)CNS(=O)(=O)c1ccc(F)c(F)c1F	6%[46.1 µM]	nt	21%	nt	nt	-9%	-17%[46.1 µM]	2%
COC(=O)c1ccc(C2C3=C(Nc4nnnn42)c2ccccc2OC3)cc1 (stereo not drawn)	4%	-4%	-3%	-2.3%	-10%	-10%	-4%	24%
CC1(C)OC(C)(C)/C(=C/Nc2ccc(O)cc2)C1=O	-13%	-13%	-8%	-5.8%	6%	4%	-3%	-11%
CCCn1c(SCC(=O)NC2CCCCC2)nnc1-c1ccncc1	13%	10%	7%	3.4%	-1%	8%	9%	0%
CCOc1ccc(C2=NC(c3ccc(OC)cc3)=Nc3ccc(Cl)cc3N2)cc1	?	2%	32%[activator]	-0.1%	nt	nt	?	nt
CCOc1cc(NC(=O)C(C)C)c(OCC)cc1NC(=O)Nc1ccccc1	nt	nt	-3%	nt	9%	4%	nt	-3%
Cc1cc(S(=O)(=O)NCC(c2ccc(N(C)C)cc2)N2CCOCC2)ccc1F (stereo not drawn)	?	-2%	-13%	0.5%	nt	nt	nt	nt
O=C(Nc1nnc(C2CC2)o1)c1ccc(S(=O)(=O)N2CCCCC2)cc1	-7%[46.1 µM]	nt	3%	nt	-11%	18%	-23%&-23%[46.1 µM]	0%
COc1ccc(-c2csc(NC(=O)C3CC(=O)N(Cc4ccco4)C3)n2)cc1 (stereo not drawn)	?	nt	?	nt	nt	-5%	?	-1%
O=C(CSc1nc2c([nH]c3ccccc32)c(=O)n1-c1ccccc1)Nc1ccc2c(c1)OCCO2	-25%[46.1 µM]	25µM*	2%	-5.4%	nt	nt	nt	nt
COc1ccc(C(NC(=O)c2ccco2)c2ccc(OC)c(OC)c2)cc1OC	?	2%	-16%	4.6%	-2%	14%	5%	3%
COc1ccc(NC(=O)c2sc3nc(N4CCOCC4)c4c(c3c2N)CC(C)(C)OC4)c(OC)c1	14%[46.1 µM]	nt	0%	nt	3%	25%	5%[46.1 µM]	-1%
